Source: PubChem
BJeLR viability – MLPCN primary cell-based screen for lethality selective to Ras in HRASV12 cells | inhibition, % (no concentration beside the values) | AID 1554, 2009 | actives 0.17% (n = 300,000) | BJeLR (HRASV12) viability, CellTiter-Glo ATP luminescence, 48 h; reference of the scale not given here;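 active = replicate mean above 50%; inconclusive = above 50% but judged a plate artefact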;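 also: 50 nL library stock added to about 25 µL; numbers are from one replicate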
RN4220 kill – growth inhibition of S. aureus RN4220, primary screen, OD600; 16 h; inhibition, % (concentration not given with the values); actives 0.33% (n = 330,000);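 active = z-score of -3 or lower and OD600 up to 0.18 on both plates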;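 also: plate controls were untreated cells for no effect and reference antibiotic for full effect; stock transfer was 100 nL into about 80 µL; one replicate is shown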
Mtb hypoxia rep – PubChem AID 1159583 | M. tuberculosis hypoxia-regulated fluorescent reporter, fluorescence | fluorescence inhibition, % (test concentration not listed) | actives 0.1% (n = 300,000);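 active = 35 to 45% if threefold the growth effect, above 45% if 1.5-fold the growth effect; inactive = the rest, general growth blockers included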;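 also: wells of about 50 µL received 100 nL stock; 0% = vehicle wells and 100% = reference inhibitor wells; whole bacteria with a GFP reporter of the hypoxia response; strong numbers were not always called active; many hits fall short of the cut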
Sa ugtP lethal – growth inhibition of ugtP-null S. aureus, primary screen, RN4220 ugtP deletion, OD600 | AID 1259309, 2017 | actives 0.54% (n = 330,000) | 16 h; some inactives read as strong as hits | growth inhibition, % (test concentration not listed);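 active = z-score under -3 and OD600 up to 0.15 on both plates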;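 also: plate controls were untreated wells for no effect and antibiotic for full effect; wells of about 80 µL received 100 nL stock; the first replicate is given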
Autofluor counter – compound fluorescence in toxin protease inhibitor counterscreen; compound autofluorescence counterscreen, microsphere flow cytometry; hits give high values; fluorescence intensity (concentration not given with the values); actives 3.1% (n = 360,000); AID 624483;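 active = at least 3 SD above the mean of all compounds, about 16000 in these data; inconclusive = too few beads counted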;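 also: 100 nL of 1 mM stock went into each well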
PrP 5UTR inh – inhibition of PrP 5' UTR reporter expression. actives 0.35% (n = 340,000). inhibition, % (test concentration not listed). cell-based PrP 5' UTR mRNA reporter, plate reader;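 active = every replicate at 50% or more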;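 also: 0 = median of the neutral control wells; tested in H4 reporter cells; numbers are from one replicate; inactives centre near -14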
Mtb hypoxia rep growth – further read-out of Mtb hypoxia rep, marked with its call; growth inhibition, %; measured here: M. tuberculosis growth (absorbance);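 0% = vehicle and 100% = reference antibiotic; read after six days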
Numbers without * were called inactive; ? = inconclusive; · = not tested or not shown; & = joins results of further samples. An unsorted share of the library; 4% or so of the library scored in one or more.

smiles | BJeLR viability | RN4220 kill | Mtb hypoxia rep | Mtb hypoxia rep growth | Sa ugtP lethal | Autofluor counter | PrP 5UTR inh
CC1(C)CC(=O)c2cc(C(=O)N3CCN(CCO)CC3)c(=O)n(-c3ccc(Cl)cc3)c2C1 | 1 | -0.2 | 3 | 9 | -1 | 9595 | -23
O=C(O)COCCN1CCN([C@H](c2ccccc2)c2ccc(Cl)cc2)CC1 | -4 | · | · | · | · | 4943 | -45
COCCNC(C(=O)Nc1ccc([N+](=O)[O-])cc1Br)c1ccccc1 (stereo not drawn) | -3 | 1.2 | 5 | 4 | 9 | 2028 | -10
CCC(=O)N1CCN=C1SCc1ccccc1 | 0 | -1.0 | · | · | 1 | 7065 | -10
COc1ccc2c(c1OC)C(=O)N1c3ccccc3N=C(c3ccc([N+](=O)[O-])cc3)CC21 (stereo not drawn) | · | 3.8 | 5 | 3 | 5 | 2346 | -19
CN1c2ccsc2C(O)=C(C(=S)Nc2ccccc2)S1(=O)=O | -1 | 17 | · | · | 5 | 4207 | -32
O=C(Nc1cccc(O)c1)C1CCCN1C(=O)OCc1ccccc1 (stereo not drawn) | 1 | -1.4 | · | · | 7 | 4715 | 4
COc1cc(C2NC(=O)NC(C)=C2C(=O)OCC2CCCO2)cc(OC)c1OC (stereo not drawn) | 2 | 3.1 | 11 | 3 | 0 | 2684 | -10
COc1ccc(-c2cnnc(NN=Cc3ccc(OC)c(OC)c3)n2)cc1 | · | 4.3 | 12 | 2 | -1 | · | ·
Cc1cccc(OCCC(=O)Nc2ccc(F)c(F)c2)c1 | 0 | -10 | -5 | -24 | 3 | 3308 | -5
CCN(CC)CC(C)CNC(=O)C1(O)c2ccccc2NC(=O)N1c1ccc(Cl)c(Cl)c1 (stereo not drawn) | -3 | 1.0 | 4 | 6 | 3 | 3889 | -9
CCc1nc(SCC(=O)c2ccccc2)c2ccccc2n1 | 0 | 15 | 9 | 2 | 7 | 1917 | 2
CCOC(=O)c1sc(NCc2ccco2)c(-c2nc3ccccc3s2)c1N | 5 | -6.8 | 5 | 2 | 7 | 3956 | -34
COC(=O)c1ccccc1NC(=O)Nc1ccc(C(=O)N2CCCC2)cc1 | 14 | 4.1 | -12 | 0 | 2 | 5813 | -13
CC(=O)c1ccc(OCc2cc(C(=O)N(C)Cc3ccon3)no2)cc1 | -4 | 6.9 | 13 | -1 | 18 | 4940 | -5
O=C(NNC(=O)C1CCCN(c2ncccn2)C1)c1ccncc1 (stereo not drawn) | 7 | · | · | · | · | 2104 | -23
CCOC(=O)CSc1nc(-c2ccncc2)ccc1C#N | -2 | 3.6 | · | · | -6 | 4094 | -77
COC(=O)c1ccc(OCC(=O)c2ccccc2)cc1 | 2 | 3.6 | · | · | 4 | 4027 | -52
CCCCOC(=O)Cn1c(=O)n(CC(=O)OCCCC)c2ccccc21 | 5 | 1.6 | · | · | 0 | 4430 | -15
Cc1ccc(OCC(=O)N(Cc2ccccc2)C2CCS(=O)(=O)C2)c([N+](=O)[O-])n1 (stereo not drawn) | 3 | 4.0 | -5 | 11 | 4 | 2531 | -17

Next part; it opens with the three that closed the last part.
smiles | BJeLR viability | RN4220 kill | Mtb hypoxia rep | Mtb hypoxia rep growth | Sa ugtP lethal | Autofluor counter | PrP 5UTR inh
COC(=O)c1ccc(OCC(=O)c2ccccc2)cc1 | 2 | 3.6 | · | · | 4 | 4027 | -52
CCCCOC(=O)Cn1c(=O)n(CC(=O)OCCCC)c2ccccc21 | 5 | 1.6 | · | · | 0 | 4430 | -15
Cc1ccc(OCC(=O)N(Cc2ccccc2)C2CCS(=O)(=O)C2)c([N+](=O)[O-])n1 (stereo not drawn) | 3 | 4.0 | -5 | 11 | 4 | 2531 | -17
COc1ccc(Nc2nc(NCCCN3CCOCC3)nc(N)c2[N+](=O)[O-])cc1 | 0 | · | · | · | · | 4618 | 1
OCCN1CCN(c2cc(C(F)(F)F)nc3c(F)cccc23)CC1 | 5 | 2.0 | 4 | 11 | 1 | 4437 | -18
Cn1cccc1Cc1nnc(SCC(=O)Nc2ccc(F)cc2)n1CCc1ccccc1 | -5 | 7.2 | · | · | 6 | 4431 | -12
Clc1ccc(SCCn2cncn2)cc1 | 0 | 2.5 | · | · | 3 | 4620 | -12
CN(CC(=O)NCc1ccccn1)S(=O)(=O)c1cc(Cl)ccc1Cl | 4 | 1.8 | 9 | -5 | 2 | 5724 | -22
CC1CC(C)CN(C(=O)COC(=O)c2ccc3c(c2)C(=O)N(Cc2ccco2)C3=O)C1 (stereo not drawn) | · | 2.4 | 9 | 0 | -1 | 5905 | -11
O=C1CN(C(=O)c2ccccn2)c2ccccc2N1 | 3 | 1.5 | · | · | -1 | 3415 | -15
COc1ccccc1NC(=O)C1CCN(C(=O)C2CC(=O)N(c3ccc(C)cc3)C2)CC1 (stereo not drawn) | -1 | 3.5 | -13 | -21 | -1 | 3706 | -17
CCc1ccc(NC(=O)CCc2nc3cccnc3n2Cc2ccc(OC)cc2)cc1 | -4 | 4.4 | 3 | 1 | 1 | 10153 | -32
COCC(C)n1c(C)cc(C(=O)CN2C(=O)NC3(CCCCC3C)C2=O)c1C (stereo not drawn) | 3 | 0.7 | 10 | 11 | 3 | 4021 | -3
O=C(COC(=O)c1ccc(Cl)nc1)NCCC1=CCCCC1 | -3 | 6.0 | -1 | 9 | -1 | 4354 | -41
CCCCOc1cc(C(=O)NCCN(CC)CC)c2ccccc2n1 | -5&-1 | 5.9&8.7 | 6&2 | 16&8 | 4&8 | 5253&5424 | -11&-19
Cc1cc(NC(=O)CON=Cc2ccc3c(c2)OCO3)ccc1Br | · | 1.4 | 3 | 3 | 3 | · | ·
Cc1cc(-c2cccc([N+](=O)[O-])c2)nc2ccccc12 | 1 | 6.5 | -5 | -1 | 3 | 2635 | -19
CN(C)c1ccc(C(=O)NCc2ccc3c(c2)OCO3)cc1 | -13 | 0.2 | 3 | 0 | -2 | 3866 | -7
Cc1sc2cc(-c3cccc([N+](=O)[O-])c3)c(-c3cccc([N+](=O)[O-])c3)c[n+]2c1C | 3 | 6.8 | 4 | 1 | 2 | 2180 | -22
CCCN1CCN(C(=S)Nc2ccc(S(N)(=O)=O)cc2)CC1 | 10 | 3.5 | 4 | 14 | 1 | 2853 | -23
Cc1cccc(Nc2nnc(SC3CCOC3=O)s2)c1C (stereo not drawn) | 4 | 2.3 | 9 | 4 | 7 | 6382 | -11
O=C(NCC1CCCN1S(=O)(=O)c1cccs1)C(=O)Nc1ccc(F)cc1F (stereo not drawn) | 1 | 3.9 | 1 | -1 | 7 | ? | -23
Cc1snc(S(=O)(=O)C(C#N)=NNc2ccc(C(F)(F)F)cc2)c1C#N | · | 10 | -2 | 2 | -2 | · | ·
CC(C)Cn1c(CN2CCCCC2C)nc2c1c(=O)n(C)c(=O)n2C (stereo not drawn) | -8 | -14 | 0 | 5 | -1 | 6873 | -21
CS(=O)(=O)c1ccc(Oc2ccc(-c3nnco3)cc2)c([N+](=O)[O-])c1 | -3 | 1.0 | -5 | -7 | 8 | 5328 | -2
COc1ccc(CCNC(=O)CSc2ccc(-c3cccs3)nn2)cc1OC | -6 | -1.4 | -1 | 3 | -3 | 4218 | -9
Cc1ccc(-c2cccc(C3CC=CC4C3C(=O)N(Cc3ccccc3)C4c3ccc(C(F)(F)F)cc3)c2)cc1 (stereo not drawn) | 6 | 17 | 4 | 4 | 4 | 3695 | -6
CCOC(=O)C(=O)Nc1ccc(S(=O)(=O)Nc2nccs2)cc1 | -5 | 3.5 | 3 | 9 | 9 | 3856 | -12
Cc1ccc(OCc2nc(-c3ccccn3)n[nH]2)cc1 | 2 | -1.3 | · | · | -13 | 2617 | -25
CCOc1cc(C=Nn2cnnc2)ccc1O | · | 7.1 | 9 | -2 | 16 | · | ·
COc1ccc(-c2cn(-c3ccccc3)c(=S)[nH]2)cc1OC | 25 | 3.8 | 0 | 4 | 11 | 4030 | -23
CCc1ccc(C2=NN(CCC(=O)N3CCC4(CC3)OCCO4)C(=O)CC2)cc1 | -12 | 4.0 | 1 | -6 | 6 | 3906 | 5
Cc1ccc(S(=O)(=O)NNC(=O)c2sc3nc(C)cc(C)c3c2-n2cccc2)cc1 | -2 | 12 | 4 | 5 | -6 | 3916 | 7
COC(=O)c1sc(NC(=O)CN2CCN(c3cccc(Cl)c3)CC2)c(C(=O)OC)c1C | · | 5.4 | 4 | 8 | -6 | 4107 | -33
Cc1ccc(NC(=O)COC(=O)c2cccnc2)c(C)c1 | 24 | 1.9 | -6 | -5 | -6 | 5190 | -16
Cc1cc(C)c(-c2csc(NC(=O)C3=COCCO3)n2)cc1C | 1 | -4.6 | -4 | -1 | -4 | 5436 | -36
CC(c1ccccn1)C(C)(O)C(C)c1ccccn1 (stereo not drawn) | · | 4.9 | 1 | 2 | 2 | 3124 | -7
Fc1ccc(C=NNc2cccc(F)c2)cc1 | · | 2.6 | -1 | -4 | 5 | · | ·
CCn1c2ccccc2c2cc(C=Nn3c(C)nnc3C)ccc21 | · | 7.3 | 5 | 0 | -16 | · | ·
COc1ccccc1Nc1nc(-c2sc(N)nc2C)cs1 | 0 | 2.7 | -1 | 9 | -1 | 3862 | -25
O=S(=O)(Nc1cccc(-c2cn3cccnc3n2)c1)c1ccc(F)cc1 | -3 | · | · | · | · | 7474 | -3
CCN1C(=O)[C@H]2[C@@H](c3ccc(-c4ccc(Cl)c(Cl)c4)cc3)N3CCCC[C@@]3(C(=O)OC)[C@H]2C1=O | -6 | · | · | · | · | 4324 | -6
NC(=O)CC(NC(=O)c1cccc(Br)c1)c1ccc(N2CCC(N3CCCC3)CC2)c([N+](=O)[O-])c1 (stereo not drawn) | -6 | 9.2 | 11 | 6 | 14 | 3633 | -16
CC(C)C1NCCc2c1sc1ccccc21 (stereo not drawn) | 11 | 4.4 | 4 | 2 | 4 | 4012 | -13
COc1ccccc1C(=O)Nc1ccc(-c2nnn(CC(=O)N3CCN(C(=O)c4ccco4)CC3)n2)cc1 | 13 | 1.1 | -6 | 0 | -4 | 2516 | -38
CSc1ccc(NC(=O)C(C)N2CCN(C)CC2)cc1 (stereo not drawn) | -3 | 1.3 | -8 | 2 | 1 | 4020 | -2
COc1ccc(CCNC(=O)CN(c2ccc(OC)c(OC)c2)S(C)(=O)=O)cc1OC | -14 | 6.6 | 8 | 9 | -3 | 10715 | -8
Cc1nc2ccccc2n1/N=C/c1ccc([N+](=O)[O-])o1 | -2 | · | · | · | · | 8015 | 0
CCC(C)(C)NC(=O)CN(Cc1cccs1)C(=O)CCC(=O)Nc1nccs1 | 6 | 4.8 | 4 | 5 | 2 | 11397 | -12
O=C(CNC(=O)c1ccncc1)NN=Cc1ccc(O)cc1O | · | 2.1 | 2 | -5 | 9 | · | ·
O=C1C2C(c3ccc(F)cc3)N3C(=O)N(c4ccccc4)C(=O)[C@@]3(Cc3ccccc3)C2C(=O)N1C1CCCCC1 (stereo partly drawn) | · | 2.6 | -6 | 8 | 5 | · | ·
COc1ccc(C(=O)c2c[nH]c(C(=O)NCCCn3ccnc3)c2)cc1 | 4 | 7.7 | 2 | 11 | 3 | 4213 | -25
COc1cccc2c1Oc1cc([N+](=O)[O-])cc(N(C)C(C)=O)c1C=C2 | 14 | 2.6 | 8 | 0 | 4 | 2926 | -7
CCCCOC(=O)c1ccc(NC(=O)CSc2nncn2C)cc1 | 2 | -1.5 | · | · | 4 | 3649 | -21
O=C(CSCc1ccc(Cl)cc1)N/N=C/c1c(Cl)cccc1Cl | 14 | · | · | · | · | 8562 | -23
CCC(O)(c1ccccc1)C(CN1CCOCC1)c1ccccc1 (stereo not drawn) | -1 | 4.6 | 2 | -1 | 4 | 3788 | -5
Oc1ccc(-c2nccc(-c3cccs3)n2)cc1 | -3 | 25 | 6 | 9 | 1 | 7284 | -95
COc1ccccc1NS(=O)(=O)c1cc(NC(=O)c2ccccc2[N+](=O)[O-])ccc1N1CCOCC1 | · | 4.6 | 6 | 12 | 8 | 3324 | -32
